# Screening data (PubChem)
# Six1-Eya2 inh: qHTS Assay for Inhibitors of the Six1/Eya2 Interaction; Homeobox protein SIX1 (Homo sapiens) + Protein phosphatase EYA2 (Homo sapiens), …; AlphaScreen GST-Six1/His-Eya2 binding, biochemical; hits give low values; control for the full effect not named in the record; activity change, % (test concentration not listed); hit rate 0.56% among 360,000; AID 651725, 2012; in the data active = activity change below about -65%; inconclusive = about -30% to -65%; inactive = above about -30%; also: % is scaled to controls: 0 for no effect and ±100 for the full control effect; compound concentration not given in the record
# Target sequence (O00167 whole entry, looked up): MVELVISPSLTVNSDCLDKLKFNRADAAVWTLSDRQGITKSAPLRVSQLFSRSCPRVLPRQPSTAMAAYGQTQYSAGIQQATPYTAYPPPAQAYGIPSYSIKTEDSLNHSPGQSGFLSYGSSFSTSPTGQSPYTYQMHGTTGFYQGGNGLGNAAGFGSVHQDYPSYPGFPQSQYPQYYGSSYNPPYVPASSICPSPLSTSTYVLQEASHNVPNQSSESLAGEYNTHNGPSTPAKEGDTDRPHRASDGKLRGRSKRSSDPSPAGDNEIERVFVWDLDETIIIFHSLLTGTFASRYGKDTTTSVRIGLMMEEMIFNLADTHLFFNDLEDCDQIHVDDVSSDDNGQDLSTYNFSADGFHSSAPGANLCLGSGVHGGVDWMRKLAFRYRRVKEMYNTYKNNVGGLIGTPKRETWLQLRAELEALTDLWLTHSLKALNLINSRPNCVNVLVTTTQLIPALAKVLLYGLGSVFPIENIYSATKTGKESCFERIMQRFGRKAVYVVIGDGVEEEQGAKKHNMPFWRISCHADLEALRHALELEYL
# Target sequence (Q15475 whole entry, looked up): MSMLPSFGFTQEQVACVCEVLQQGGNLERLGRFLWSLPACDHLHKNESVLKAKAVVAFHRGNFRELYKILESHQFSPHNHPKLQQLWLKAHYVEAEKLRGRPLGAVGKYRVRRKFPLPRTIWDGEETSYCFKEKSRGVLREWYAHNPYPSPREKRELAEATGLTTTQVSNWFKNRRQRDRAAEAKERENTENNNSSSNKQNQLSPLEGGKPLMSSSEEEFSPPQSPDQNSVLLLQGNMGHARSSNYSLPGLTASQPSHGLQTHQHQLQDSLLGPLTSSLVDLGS
#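 Six1/Eya2 binding was read as AlphaScreen signal after compounds were pinned into GST-Six1 plus His-tagged Eya2 (5X stock 250/500 nM) in pH 8.0 Tris/NaCl/TCEP buffer, beads added, then incubated 1 h, 37 C, dark.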
# PINK1 modulator: A Quantitative High throughput Screen to Identify Chemical Modulators of PINK1 Expression; PINK1 immunofluorescence, high-content cytometry, 24 h; hit rate 0.2% among 410,000; AID 624263, 2012; Potency, µM (top dose mostly 76.6 µM), for the others: at the highest dose activation (PINK1 increase), most hits filed as activators; active = well fitted activation curve with a large enough effect; inconclusive = small, poorly fitted or top-dose-only effect; inactive = flat fitted curve, though single readings scatter; cell line not stated here;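 also: potency is read from the fitted curve at half-maximal effect; % of control where 0% means no effect; nearly all actives have a fitted effect of over 65% in size; a mitochondrial uncoupler was the plate control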
#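 Readout is PINK1 immunofluorescence, quantified alongside mitochondrial, cell and nuclear markers by laser-scanning microplate cytometry. Cells from a stable line were exposed to compound titrations (5 concentrations) for 24 hours, with CCCP controls.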
# D2 PAM: Beta-Arrestin HTS for Positive Allosteric Modulators of the Human D2 Dopamine Receptor: Potentiators; DiscoveRx D2 beta-arrestin cells, luminescence, 90 min; 100% = 57 uM dopamine signal; hit rate 0.23% among 360,000; D(2) dopamine receptor (Homo sapiens), P14416; potentiation, % (concentration not given with the values); active = potentiation of 50% or more; inconclusive = 30% to 50%; inactive = 30% or less;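 also: compound concentration not given in the record; tested on top of an EC20 dose of dopamine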
#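 PathHunter beta-arrestin assay in DiscoveRx D2 cells. Compounds were added with an EC20 of dopamine (50 nM final) for 90 min at 37 deg C. Luminescence was read 1 h after detection reagent, with 57 uM dopamine as the EC100 control.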
# D2 agonist: Beta-Arrestin HTS for Positive Allosteric Modulators of the Human D2 Dopamine Receptor: Agonists | D(2) dopamine receptor (Homo sapiens), P14416 | DiscoveRx PathHunter D2 beta-arrestin, luminescence, 90 min; 100% = 57 uM dopamine signal | activation, % (concentration not given with the values) | hit rate 0.084% among 360,000; in the data active = activation above about 40%; inconclusive = about 15% to 40%; inactive = below about 15%; also: compound concentration not given in the record; the text of the record calls up to 30% inactive
#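 Agonist mode: compounds alone added to overnight-plated D2 PathHunter cells for 90 min at 37 C, with 57 uM final dopamine (EC100) defining full response. Beta-arrestin recruitment detected by chemiluminescent reagent, read after 1 h at ambient temperature.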
# CtBP-E1A blk: qHTS Assay for Inhibitors of the CtBP/E1A Interaction. CtBP / adenovirus E1A interaction (AlphaScreen). AlphaScreen GST-E1A/His-CtBP binding, 1536-well; hits give low values; control for the full effect not named in the record. activity change, % (no concentration beside the values). hit rate 0.49% among 340,000. AID 651724, 2012; in the data active means activity change below about -65%; inconclusive means about -30% to -65%; inactive means above about -30%; also: % is scaled to controls: 0 for no effect and ±100 for the full control effect; compound concentration not given in the record
#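 In 5 uL wells, 23 nL compound meets equimolar GST-E1A and His-CtBP (5X stock 125 nM each) for 2 h, 37 °C. Beads (5X, 50 ug/mL) then 1 h, 37 °C, dark.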
# TRPML1 ag: qHTS for Agonists of the Human Mucolipin Transient Receptor Potential 1 (TRPML1) | Mucolipin-1 (Homo sapiens), Q9GZU1 | hit rate 0.12% among 410,000 | activation, % (concentration not given with the values) | TRPML1-expressing cells, Ca2+ dye fluorescence, FDSS; host cell line not named in the record; reference of the full effect not given here; in the data active = activation above about 50%; inconclusive = about 30% to 50%; inactive = below about 30%; also: 0% is about no effect; the text of the record puts the active cut at 80%
#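 Tet-induced TRPML1-DL cells, 1,500 per well, cultured overnight, were loaded with a no-wash Ca2+ dye for 45–90 min. Calcium fluorescence was recorded on the FDSS for 110 s after compound addition, before the EC80 agonist (4 uM 54-4) was added.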
# The depositor's hits bear a star; ? = inconclusive; / = not tested or not shown; & = joins results of further samples; [ ] = another dose, or the depositor's remark. Compounds as they come (roughly 1.3% active in at least one column).
SMILES,Six1-Eya2 inh,PINK1 modulator,D2 PAM,D2 agonist,CtBP-E1A blk,TRPML1 ag
O=C(N/N=C/C1CC=CCC1)c1cc2ccccc2cc1O (stereo unspecified),-6,2.3%,6,-5.8,3,1.0
O=C(CC(c1ccccc1)c1ccco1)N1CCOCC1 (stereo unspecified),3,1.6%,-3,-2.3,3,-0.6
COc1ccc(C(=O)COC(=O)Cn2cnc3c2c(=O)n(C)c(=O)n3C)c(OC)c1,-2,0.4%,-3,-0.5,4,-0.1
CCCn1nnc(NC(=S)NC(=O)Cc2ccccc2)n1,-2,-0.1%,-28,-11,1,-0.2
Cc1c(O)c(CN(C)C)cc2c1oc(=O)c1ccccc12,2,-0.4%,-15,-0.9,-1,0.4
Cc1n[nH]c2c([N+](=O)[O-])c(=O)[nH]c(=O)n12,-1,1.4%,-10,-0.7,5,0.5
O=C(NCc1ccc(F)cc1)C1CCCN(S(=O)(=O)c2cccc3nsnc23)C1 (stereo unspecified),4,-2.4%[38.3 µM],-12,-1.9,-9,1.6
CCc1cccc(CC)c1NC(=O)CN1C2CCCC1CC(NC(=O)Nc1cccc(OC)c1)C2 (stereo unspecified),-19,1.7%,-8,-4.0,-12,3.3
CCC(=O)NC(=S)Nc1ccc2oc(-c3ccc(OC)cc3)nc2c1,-5,4.7%,-1,5.7,-1,0.5
O=C(CCl)NCCCCCCCCCNC(=O)CCl,-6,1.6%,-11,3.4,7,-0.2
CCCCn1c(N)c(N(CC(C)C)C(=O)CCN2C(=O)C3CC=CCC3C2=O)c(=O)[nH]c1=O (stereo unspecified),0,-0.1%,-4,-1.0,6,-0.3
COc1ccc(Cc2noc(CN(C)C3CC(C)(C)NC(C)(C)C3)n2)cc1OC,8,1.0%,-5,-6.3,4,-0.9
CC1CCCC(C)N1C(=O)COC(=O)c1nn(C)c(=O)c2ccccc12 (stereo unspecified),2,1.0%,-1,1.2,1,-0.7
CC(=O)c1cccc(CN2CCCCC2C(=O)Nc2ccc(Oc3ccccc3)nc2)c1 (stereo unspecified),1,0.2%,-38,-1.8,7,0.4
COc1ccc(-c2nc3c(c(=O)[nH]c(=O)n3Cc3ccccc3)n2Cc2ccccc2)cc1,-2,-2.7%,-2,-1.7,-1,-0.6
Cc1ccc2nc(NCCc3ccc(Cl)cc3)c3nncn3c2c1,0,5.1%&0.6%,-1,-1.7,-1,3.4&1.6
CC(=O)Nc1ccc(-c2nnc(SCc3ccc(C)cc3)n2C)cc1,14,0.6%,-10,-0.7,9,0.5
CCCn1c(-c2nonc2N)nc2ccccc21,4,-0.1%,-10,0.0,3,2.2
CN1CCN(c2ccc([N+](=O)[O-])cc2NC(=O)c2ccco2)CC1,4,-0.3%,-9,-0.9,3,0.0
N#CC[C@H](c1ccccc1)N1CCN(Cc2ccccc2)CCC1=O,4,-0.5%,-4,2.4,2,-0.6

# Brought forward from above: 5 entries; new compounds follow.
SMILES,Six1-Eya2 inh,PINK1 modulator,D2 PAM,D2 agonist,CtBP-E1A blk,TRPML1 ag
Cc1ccc2nc(NCCc3ccc(Cl)cc3)c3nncn3c2c1,0,5.1%&0.6%,-1,-1.7,-1,3.4&1.6
CC(=O)Nc1ccc(-c2nnc(SCc3ccc(C)cc3)n2C)cc1,14,0.6%,-10,-0.7,9,0.5
CCCn1c(-c2nonc2N)nc2ccccc21,4,-0.1%,-10,0.0,3,2.2
CN1CCN(c2ccc([N+](=O)[O-])cc2NC(=O)c2ccco2)CC1,4,-0.3%,-9,-0.9,3,0.0
N#CC[C@H](c1ccccc1)N1CCN(Cc2ccccc2)CCC1=O,4,-0.5%,-4,2.4,2,-0.6
O=C(/C=C/Nc1ccc([N+](=O)[O-])cc1)c1ccc(Br)cc1,4,?,-8,1.5,5,0.8
Cc1cc(=O)cc(C)n1-c1ccc(O)cc1,3,-1.7%,-1,-1.6,1,0.2
Cn1cccc1/C=N/n1c(-c2ccc(C(C)(C)C)cc2)n[nH]c1=S,-29,7.8%,-8,0.3,-15,1.4
COCCn1c(C)cc(C(=O)COC(=O)/C=C/c2cccc(OC)c2)c1C,-23,0.0%,-5,-0.5,-12,2.4
Cc1ccc(-c2nc3c(c(=O)c4ccccc4n3C)c(=O)n2-c2ccc(F)cc2)cc1,4,6.7%,-6,-6.7,-14,-0.1
COc1ccc(OC)c(/C=C2\SC(N3CCCC(C)C3)=NC2=O)c1 (stereo unspecified),-6,1.8%,-9,2.0,0,0.2
Cc1cc(C)nc(N(C#N)CC(=O)N2CCC(C(N)=O)CC2)n1,-3,-0.9%,-6,-1.9,2,-0.6
CCC(=O)Nc1cccc(C2=NOC3(C2)C[C@@H](C(N)=O)N(C(=O)c2cc([N+](=O)[O-])cc([N+](=O)[O-])c2)C3)c1 (stereo partly specified),1,1.9%,23,14,4,-0.1
N#Cc1ccc(CNc2cnccn2)cc1,2,-3.9%[38.3 µM],-10,-1.0,1,0.1
COc1cccc(CNC(=O)[C@@H]2CCCN2C(=O)[C@@H]2CCCN2C(=O)c2c(F)cccc2F)c1,9,0.4%,/,/,-4,-0.4
COC(=O)c1c(NC(=O)C2c3ccccc3Oc3ccccc32)sc(C)c1C,-9,1.0%,-5,-1.8,13,0.1
CCOC(=O)c1cnc2nc(C)[nH]n2c1=O,9,-0.6%,-5,0.6,0,0.9
O=C(/C=C/c1ccc(Cl)c([N+](=O)[O-])c1)c1ccc(O)cc1,1,-1.9%,-7,2.1,-1,1.2
CN(C)CCOc1ccccc1-c1ccccc1,0,-0.7%,-15,-0.9,2,-0.1
CC(Oc1ccccc1Br)C(=O)N1CCc2ccccc21 (stereo unspecified),2,0.7%,-16,-2.5,12,0.5
COc1cc(NC(=O)CN2CCN(C(=O)C3CCCO3)CC2)c(OC)cc1Cl (stereo unspecified),0,0.3%,-15,-3.5,0,1.1
COc1ccc(-c2[nH]ncc2CN2CCCC2c2nonc2C)c(F)c1 (stereo unspecified),-3,-0.5%,-3,5.7,-3,-0.1
COc1ccc(CCC(=O)Nc2ccc(Cl)c(S(=O)(=O)N3CCOCC3)c2)cc1OC,-10,1.9%,3,0.1,4,1.9
CC(Sc1nnc(COc2ccc([N+](=O)[O-])cc2)n1C)C(=O)O (stereo unspecified),3,0.6%,-2,-3.5,0,0.9
Cc1cc(C)n(-c2ccc(C(=O)Nc3ccccn3)cc2)n1,-6,?,-7,-3.2,-10,0.6
CC1(C)CC2(CC(c3ccccc3)Oc3cc(O)ccc32)NC(=S)N1 (stereo unspecified),-10,2.2%,-3,-3.2,2,0.1
Fc1ccc2[nH]c3c(N4CCN(Cc5ccc6c(c5)OCO6)CC4)ncnc3c2c1,?,14%,-3,7.6,?,0.9
Cc1ccc2cc(-c3noc(C4CCCCC4)n3)c(=O)[nH]c2c1,2,4.0%,-6,-6.1,0,-0.9
Cc1ccc(-c2nc3cnccn3c2Nc2c(C)cccc2C)o1,4&0,0.5%&1.8%,0,5.7,4,2.6&6.3
Clc1cc(Br)ccc1OCCOCCOc1cccc2cccnc12,-1,5.0%,-6,-8.4,12,0.8
CN1CCN(c2nc(-c3ccc(Cl)cc3Cl)nc3ccccc23)CC1,-9,9.3%,-9,-3.4,/,0.5
CCOC(=O)c1c(C)[nH]c(C)c1S(=O)(=O)N(C)CC(=O)Nc1cccc(C)c1,-8,-0.6%,-6,6.5,/,0.3
CN(C)c1ccc(-c2noc(C3CCN(S(=O)(=O)c4ccc(C(=O)O)cc4)CC3)n2)cc1,-5,-2.8%[38.3 µM],14,3.8,6,-0.2
CCSc1nnc(-c2cccs2)o1,9,2.1%[38.3 µM],-12,1.0,6,0.4
CCOC(=O)c1ccccc1NC(=O)c1nc2nccc(C)n2n1,3,-0.3%,7,-4.3,5,0.0
CCCC(=O)Nc1nc(CC(=O)OCC)cs1,4,-0.3%,0,-7.7,-2,1.3
COc1cccc(CC(=O)Nc2ccc(S(=O)(=O)N3CCOCC3)cc2)c1,-3,-2.8%,3,0.0,-12,2.7
CNC(=S)N1CCc2ccccc2C1,8,-1.0%,-5,-0.8,11,-0.3
COc1ccc(OCCCC(=O)OCC(=O)N2CCN(S(=O)(=O)c3ccc(C)cc3C)CC2)cc1,-5,0.6%,-4,-2.4,/,2.7
Cc1nn(C)c(C(=O)Nc2ccc3c(c2)OCO3)c1[N+](=O)[O-],-8,4.0%,-4,-1.1,-1,0.0
CC(C)(CCc1ccccn1)C(=O)CCCc1ccccn1,0,2.0%,-4,2.5,7,-0.9
Cc1ccc(NC(=O)C2(c3cccs3)CCOCC2)cc1C,4,2.2%,7,-0.5,8,0.0
COc1cccc(SCc2noc(C(=O)NCc3ccccc3)c2C(=O)NCc2ccccc2)c1,1,-0.2%,-6,-3.0,0,1.4
O=C(OCc1cc2ccccc2[nH]c1=O)c1cccc([N+](=O)[O-])c1,3,7.1%,-7,-1.3,/,1.5
CC(C)CCNC(=O)C1CCN(S(=O)(=O)c2ccc3c(c2)CC(C)N3C(=O)C2CC2)CC1 (stereo unspecified),4,-0.1%,-7,-2.9,/,0.8
Nc1ccc(C2=Nc3cccc4cccc(c34)N2)cc1,-7,0.1%,4,?,/,-0.1
CC(C)(C)NC(=O)COC(=O)c1cncc(Br)c1,-2,-0.3%,11,-0.8,8,-0.9
O=C(c1ccccc1[N+](=O)[O-])N1CCc2ccccc2C1,8,0.3%,-25,-2.6,2,0.8
COc1ccc(/C=N/NC(=O)Cc2cccs2)cc1,0,0.3%,-3,4.1,/,3.2
Nc1c(C(=O)NCC2CCCO2)c2nc3ccccc3nc2n1/N=C/c1ccncc1 (stereo unspecified),-3,11%,10,0.5,-10,/
COC(=O)c1cc(Cl)c(NC(=O)c2cc(OC)c(OC)c(OC)c2)cc1OC,7,?,-11,-0.6,16,0.2
CSc1nc2ccccc2n1Cc1c(Cl)cccc1Cl,-7,0.6%,4,-0.5,-1,0.0
O=C(Nc1ccc(-c2cn3ccccc3n2)cc1)c1ccco1,0,7.7%,8,0.8,-4,0.6
CS(=O)(=O)c1ccc(Nc2nc(C(N)Cc3ccc(C(F)(F)F)cc3)cs2)cc1 (stereo unspecified),-8,1.1%,-3,15,-1,4.0
CCOc1ccc(NC(=O)CN(C)C(=O)c2ccc(C3SCCS3)cc2)cc1OCC,-11,-2.3%,-4,0.5,-9,0.3
COc1ccccc1N1CCN(C(CNC(=O)c2ccco2)c2cccnc2)CC1 (stereo unspecified),-3,2.9%,-6,0.5,9,-0.5
